Mtb hypoxia inh: inhibitors of hypoxia-regulated fluorescent reporter in Mycobacterium tuberculosis | fluorescence inhibition, % (test concentration not listed) | actives 0.1% (n = 300,000) | M. tuberculosis hypoxia-regulated fluorescent reporter, fluorescence;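 active = 35 to 45% if threefold the growth effect, above 45% if 1.5-fold the growth effect; inactive = the rest, general growth blockers included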;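 note: wells of about 50 µL received 100 nL stock; 0% = vehicle wells and 100% = reference inhibitor wells; whole bacteria with a GFP reporter of the hypoxia response; strong numbers were not always called active; many hits fall short of the cut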
PrP 5UTR inh: inhibition of PrP 5' UTR reporter expression | inhibition, % (concentration not given with the values) | actives 0.35% (n = 340,000) | AID 488862 | cell-based PrP 5' UTR mRNA reporter, plate reader;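 active = every replicate at 50% or more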;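 note: 0 = median of the neutral control wells; tested in H4 reporter cells; numbers are from one replicate; inactives centre near -14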
Sa RN4220 lethal: S. aureus RN4220 growth inhibition | inhibition, % (no concentration beside the values) | actives 0.33% (n = 330,000) | OD600, 16 h;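 active = z-score of -3 or lower and OD600 up to 0.18 on both plates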;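 note: plate controls were untreated cells for no effect and reference antibiotic for full effect; stock transfer was 100 nL into about 80 µL; one replicate is shown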
ugtP null kill: compounds lethal to S. aureus RN4220 ugtP deletion mutant; OD600 growth, 16 h; some inactives read as strong as hits; growth inhibition, % (test concentration not listed); actives 0.54% (n = 330,000);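 active = z-score under -3 and OD600 up to 0.15 on both plates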;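 note: plate controls were untreated wells for no effect and antibiotic for full effect; wells of about 80 µL received 100 nL stock; the first replicate is given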
Autofluor counter: counter-screen for toxin protease inhibitors: compound fluorescence. actives 3.1% (n = 360,000). fluorescence intensity (test concentration not listed). AID 624483. compound autofluorescence counterscreen, microsphere flow cytometry; hits give high values;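 active = at least 3 SD above the mean of all compounds, about 16000 in these data; inconclusive = too few beads counted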;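 note: 100 nL of 1 mM stock went into each well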
BJeLR viability: BJeLR cell viability loss; BJeLR (HRASV12) viability, CellTiter-Glo ATP luminescence, 48 h; reference of the scale not given here; inhibition, % (test concentration not listed); actives 0.17% (n = 300,000); AID 1554;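 active = replicate mean above 50%; inconclusive = above 50% but judged a plate artefact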;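 note: 50 nL library stock added to about 25 µL; numbers are from one replicate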
Mtb hypoxia inh growth: also measured in Mtb hypoxia inh; calls as there; growth inhibition, %; measured here: M. tuberculosis growth (absorbance);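 0% = vehicle and 100% = reference antibiotic; read after six days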
* marks the source's active call; other numbers are inactive results; ? = inconclusive; nt = no result given.

A first look, 5 compounds:
SMILES	Mtb hypoxia inh	Mtb hypoxia inh growth	PrP 5UTR inh	Sa RN4220 lethal	ugtP null kill	Autofluor counter	BJeLR viability
O=C(NNC(=O)c1cccc(-n2cccc2)c1)c1ccc(F)cc1	12	-3	-24	1.9	0	5903	-6
Cc1ccc(C(=O)OCC(=O)Nc2sc3c(c2C#N)CCC3)cc1	15	4	-4	7.6	2	10323	-12
Cc1nnc(SCC(=O)NC(=O)NC2CCCC2)n1N	11	13	-20	-6.2	4	3236	nt
O=C(NC1CC1)c1ccc2snnc2c1	1	3	-24	1.9	1	2165	-7
O=C1C2CC=CCC2C(=O)N1CC1CCCO1 (stereo not drawn)	6	-6	-28	3.5	3	3857	1

The listing, from the start:
SMILES	Mtb hypoxia inh	Mtb hypoxia inh growth	PrP 5UTR inh	Sa RN4220 lethal	ugtP null kill	Autofluor counter	BJeLR viability
O=C(NNC(=O)c1cccc(-n2cccc2)c1)c1ccc(F)cc1	12	-3	-24	1.9	0	5903	-6
Cc1ccc(C(=O)OCC(=O)Nc2sc3c(c2C#N)CCC3)cc1	15	4	-4	7.6	2	10323	-12
Cc1nnc(SCC(=O)NC(=O)NC2CCCC2)n1N	11	13	-20	-6.2	4	3236	nt
O=C(NC1CC1)c1ccc2snnc2c1	1	3	-24	1.9	1	2165	-7
O=C1C2CC=CCC2C(=O)N1CC1CCCO1 (stereo not drawn)	6	-6	-28	3.5	3	3857	1
O=C(C=Cc1ccc2c(c1)S(=O)(=O)N(Cc1ccccc1)C2CC(=O)N1CCOCC1)N1CCOCC1 (stereo not drawn)	12	10	nt	7.2	1	nt	nt
COc1ccc(OC)c(C2=NOC(C(=O)Nc3cccc(C(C)=O)c3)C2)c1 (stereo not drawn)	1	10	3	1.5	0	23110*	8
O=C(Cc1ccc(S(=O)(=O)N2CCCC2)s1)NC1CCCCCC1	nt	nt	-27	4.2	-3	5942	3
COc1cc(C)c(C(C)C)cc1S(=O)(=O)N1CCN(C)CC1	-2	6	-19	6.5	-3	10182	0
Sc1nnc(-c2ccc(Cl)cc2)n1Cc1ccccc1	13	9	-8	1.2	-1	3646	nt
S=c1[nH]nc(CN2CCCC2)n1Cc1ccccc1	-1	4	1	1.8	-6	4533	-7
Cc1ccc2c(c1)N(C(=O)CCC(=O)NCc1cccc(Cl)c1)CC(C)O2 (stereo not drawn)	-2	8	-2	-15	-7	6047	-8
CCCCn1c(N)c(C(=O)NCCN2CCOCC2)c2nc3ccccc3nc21	nt	nt	-9	-4.7	4	4324	-3
COc1ccc2ccccc2c1/C=N/Nc1cccc(C(=O)O)c1	nt	nt	-41	nt	nt	2971	-8
CC(=NCc1ccc2c(c1)OCO2)c1c(O)[nH]c(=O)[nH]c1=O	6	12	1	2.1	2	4691	2
CC(NC(=O)Nn1cnnc1)(C(F)(F)F)C(F)(F)F	6	6	-35	3.9	9	7885	3
CCOc1ccc(NC(=O)CC2CC(C)(C)OC2=O)cc1 (stereo not drawn)	nt	nt	2	6.1	4	4009	-7
O=C(c1ccccc1)N1CCN(c2ncnc3c2cnn3-c2ccccc2)CC1	nt	nt	-13	0.3	4	5068	-20
C=CCNC(=S)N/N=C(\C)c1ccc(OC)cc1	nt	nt	-110	nt	nt	2200	-8
N#CC(c1ccccc1)N(CCCCl)C(=O)c1ccccc1 (stereo not drawn)	8	3	-13	9.0	2	2089	-18
O=c1nc2s/c(=C\c3ccc(-c4ccccc4[N+](=O)[O-])o3)c(=O)n2nc1-c1ccccc1	nt	nt	-24	nt	nt	1942	8
COc1ccc(CCCC(=O)NC2CCCCC2C)c(C)c1 (stereo not drawn)	12	4	-12	6.3	2	4396	2
COc1ccc(C2Nc3ccccc3C(=O)N2NS(C)(=O)=O)cc1 (stereo not drawn)	3	7	-1	3.2	2	2635	12
C=CCNc1nc(N2CCCCC2)c(C#N)c2c1CN(Cc1ccccc1)CC2	nt	nt	-21	-12	-1	4822	-1
COc1cc(/C=C/C(=O)OCC(=O)NC2CC2)cc(OC)c1OC	4	-8	7	4.2	10	2939	nt
CCCOC(=O)CSC1=C(C#N)C(c2ccccc2OC)C(C#N)C(=O)N1 (stereo not drawn)	nt	nt	11	-6.0	-7	2996	-2
COc1ccc(NC(=O)Nc2ccc3c(c2)C(=O)N([C@H](C)CO)C[C@H](C)[C@@H](CN(C)C(=O)Nc2ccccc2)O3)cc1	4	0	-11	-1.2	14	3138	nt
CCCCn1c(N)c(N(CC)C(=O)CCNC(=O)c2ccc(Cl)cc2)c(=O)[nH]c1=O	3	3	-19	4.1	7	3200	nt
CC(C)=NN/C(N)=N/C(=S)Nc1ccc(C)cc1	2	-3	-62	5.8	5	2277	1
CCOc1ccc2[nH]c(=O)c(C(c3nnnn3C3CCCCC3)N3CCN(CC)CC3)cc2c1 (stereo not drawn)	-4	12	-27	5.3	-12	21002*	7
COC(=O)c1cc2c(ccn2-c2ccc(F)cc2)n1CC(C)C	21	15	-16	8.8	74	4006	0
CCOc1ccc(S(=O)(=O)N2CCCC(C(=O)N3CCOCC3)C2)cc1C (stereo not drawn)	4	0	-18	0.5	5	5463	4
NCCCCCc1nnc(SCc2ccc(Cl)c(Cl)c2)o1	16	13	-31	4.9	-6	9787	-1
Cc1cc2ncc(-c3cccc(Cl)c3)cn2n1	5	-1	-47	-11	8	4112	-9
O=C(Nc1nc2c(s1)CCCC2)c1cccc(S(=O)(=O)N2CCCc3ccccc32)c1	-10	-7	-5	2.8	-19	2128	-1
O=C(O)c1cccc(S(=O)(=O)N2CCN(c3ccccn3)CC2)c1	10	-2	-14	1.6	7	4066	10
CCc1ccc(CNCCc2ccccc2F)cc1	-3	5	-17	-0.6	1	2112	-2
CN1CCN(C(c2cc3cc4c(cc3[nH]c2=O)OCCO4)c2nnnn2C2CCCC2)CC1 (stereo not drawn)	20	6	nt	-1.5	5	nt	3
COCCCNC(=O)Cn1cc2c(n1)CCC(C)C2 (stereo not drawn)	nt	nt	11	-0.1	10	6490	3
CC(=O)Nc1cccc(N2C(=O)CC(N3CCC(C(=O)N4CCCCC4)CC3)C2=O)c1 (stereo not drawn)	nt	nt	-12	-3.8	-3	3581	-3
CC1=C(C)C(c2ccccc2)NC(=S)N1 (stereo not drawn)	17	8	-15	-1.1	4	2185	-1
CCn1c(=N)n(CC(=O)c2ccc(Cl)c(Cl)c2)c2ccccc21	0	6	-20	-2.7	-17	4037	2
Cc1occc(=O)c1OCc1c(F)cccc1Cl	1	-3	-10	3.8	0	4664	6
CCOC(=O)COc1cc(OCC(=O)OCC)c2c3c(c(=O)oc2c1)CCCC3	15	10	-14	4.6	5	3739	2
COc1cccc(NC(=O)COC(=O)c2ccc(F)cc2F)c1	-8	-3	-11	8.2	4	2566	7
CN(C)/C=C/C(=O)C(F)(F)F	8	3	45	7.6	2	3238	12
Cc1cc(C)n2nc(SCCOc3ccc(F)cc3)nc2n1	10	-6	-15	3.3	2	4701	6
Cc1cc(=O)oc(C)c1C(=O)N1CCN(c2ccc(F)cc2)CC1	nt	nt	-22	-1.2	12	4097	9
COc1ccc(C2Nc3ccccc3C(=O)N2NC(C)=O)c(OC)c1 (stereo not drawn)	-10	8	-2	1.1	2	3767	2
Cc1ccc(S(=O)(=O)N2CCCCC2)cc1NC(=O)CN1C(=O)c2ccccc2S1(=O)=O	5	10	0	3.3	1	3850	nt
Cc1ccccc1NCC(=O)NN=Cc1ccc2c(c1)OCO2	-1	15	nt	-6.9	-12	nt	nt
C=CCOc1nc2sc(C)c(C)c2c(=O)n1-c1ccccc1	-5	8	-12	0.7	6	3792	-5
COC(=O)CNC(=O)Cn1cnc2sc(C)c(S(=O)(=O)N3CCC(C)CC3)c2c1=O	5	-1	-5	2.8	10	3926	-8
CCC(C)(C)NC(=O)C(c1ccc(F)cc1)N(Cc1ccco1)C(=O)c1snc(C(N)=O)c1N (stereo not drawn)	-7	-1	-12	-1.7	-1	5933	5
C/C(=N\NC(=O)C(=O)Nc1cccc(Cl)c1C)c1ccncc1	nt	nt	-8	nt	nt	10450	-15
COc1ccc(Cl)cc1C(=O)Nc1cccc2ncccc12	-1	2	-15	3.5	0	3087	-5
COc1ccc(S(=O)(=O)N2CCOCC2)c(Cl)c1Cl	8	6	-13	6.9	-2	4499	-4
Cc1[nH]c(=S)c(C#N)c(C)c1Cc1ccccc1	2	12	nt	-0.3	8	5611	-2
Cc1nc(NCCc2ccccc2)sc1C(=O)O	-2	3	-32	1.3	1	5926	-10
Cc1c(C)c2ccc(OC(C)C(=O)NCCCN3CCOCC3)c(C)c2oc1=O (stereo not drawn)	12	1	4	3.4	3	6372	9

Additional structures:
SMILES	Mtb hypoxia inh	Mtb hypoxia inh growth	PrP 5UTR inh	Sa RN4220 lethal	ugtP null kill	Autofluor counter	BJeLR viability
COC(=O)c1cccc(Nc2nc(-c3cccnc3)nc3ccccc23)c1	-3	1	-5	-8.9	-25	3862	0
Cc1cccc(C(=O)OCC(=O)Nc2ccc3c(c2)OCCO3)c1	-10	1	-24	1.3	4	4332	nt
CCOc1cc(-c2conc2N)cc(OCC)c1OCC	1	9	0	-0.3	0	10512	-1
O=C(CN1CCN(Cc2ccccc2)CC1)Nc1ccc(Cl)cn1	5	3	-30	1.8	5	4118	-10
COc1cc(C(=O)Nc2sc3c(c2C#N)CCN(C(C)=O)C3)cc(OC)c1OC	-3	4	-36	1.6	10	5972	1
CCCn1c(=O)c(C(=O)NN=Cc2ccc(F)cc2)c(O)c2ccccc21	8	4	nt	101*	101*	nt	nt
O=C(CCN1C(=O)/C(=C/c2ccccc2F)SC1=S)Nc1cccnc1	-3	-5	-16	-0.7	-3	?	-4
CN1CCN(C(=O)CN(C)S(=O)(=O)c2ccc3ccccc3c2)CC1	3	13	-19	3.2	9	4023	2
Cc1ccc(CN2CC(C(=O)O)CC2=O)cc1 (stereo not drawn)	0	0	-9	3.2	5	?	-7
CCc1nn(CC(=O)NC(C)CCc2ccccc2)c(=O)c2cc3occc3n12 (stereo not drawn)	-5	-3	-5	2.6	6	5852	-5
O=C(N[C@H](C(=O)O)c1ccccc1)C1CCC(Cn2nnc3ccccc3c2=O)CC1 (stereo partly drawn)	3	11	nt	2.5	3	nt	9
CC(=O)Nc1nc(CC(C)C)cc2c1c(=O)oc1ccccc12	nt	nt	-8	-0.7	-21	4001	-7
Cc1nnc(NC(=O)CSc2nnc3scc(-c4ccc(C)c(C)c4)n23)s1	-3	-4	-29	0.7	-5	11142	0
Cc1oc(-c2ccccc2Cl)[n+]([O-])c1C	4	0	-9	5.1	3	25209*	5
Nc1nonc1-n1nnc(C(=O)N/N=C/c2ccccc2)c1CSc1ccc(Cl)cc1	nt	nt	-9	nt	nt	2143	-1
CC[C@]12c3[nH]c4cc(CCC(=O)N(C)C)ccc4c3CCN1C(=O)[C@@H](CC(=O)NCCCOC)C[C@@H]2C(=O)N1CCN(C(=O)c2ccco2)CC1	4	-3	-8	2.2	9	2984	nt
O=C(NCCc1ccc(Cl)cc1)C1CCC(=O)N1Cc1ccc(F)cc1 (stereo not drawn)	10	7	11	2.5	-1	5815	7
O=C1CCSc2ccc(Cl)cc2N1Cc1cccc(Cl)c1	nt	nt	-17	-1.0	62	2120	-3
CS(=O)(=O)N1CCN(C(=O)c2cc(-c3ccncc3)nc3ccc(Cl)cc23)CC1	nt	nt	-5	-7.5	-4	2828	5
CCOC(=O)c1sc(C)c2c(=O)n(Cc3ccc(Cl)cc3)cnc12	nt	nt	2	nt	nt	4436	-1
C#CCOc1nc(C)cc(C)c1S(=O)(=O)c1ccccc1C	10	10	-2	8.2	3	2798	-6
COc1cc(C=NNc2ccccc2[N+](=O)[O-])cc(OC)c1O	25	6	nt	-1.0	2	nt	nt
O=C(COC(=O)c1cc(=O)[nH]c(=O)[nH]1)NCc1ccccc1	13	8	-7	4.0	4	2621	3
O=C(Nc1ccccc1F)c1ccc(CN2CCN(c3ccccc3)CC2)cc1	17	0	-10	3.1	8	4220	5
c1ccc(-c2ccc(-c3ccccn3)s2)nc1	17	1	-63	4.3	7	6168	0
Cc1ccc(-n2c(-c3c(-c4ccccc4)noc3C)n[nH]c2=S)cc1	-8	-2	4	7.3	-5	15768	0
